Screening results from PubChem BioAssay.
eIF4H FP inh: inhibitors of RNA binding by human eIF4H. Q15056. eIF4H fluorescence polarization binding assay. inhibition, % at 35 µM. 290,000 compounds, 0.94% hits;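 active = 50% or more with normal probe brightness, or confirmed in later tests; about a fifth of its hits are not listed in these tables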;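 note: calls also rest on retests at 20 µM and on dose response follow-up; 0% = protein and probe with vehicle and 100% = probe without protein; strong numbers were not always called active; many hits fall short of the cut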
Env fusion inh: inhibitors of HIV Env-mediated cell fusion; HeLa-JRFL Env/CEM21 cell fusion, luciferase; inhibition, % at 12.3 µM; 360,000 compounds, 1.1% hits; AID 651610;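 active = mean replicate inhibition score of at least 50 and every replicate individually at or above 50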;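 note: 0% = plate neutral controls and 100% = maraviroc near 300 nM; one replicate is shown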
Rce1 inhib: inhibitors of yeast Ras-converting enzyme; calls only; Q03530; AID 2563; yeast membranes, quenched prenylated peptide cleavage fluorescence; 290,000 compounds, 0.27% hits;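 active = fall in fluorescence gain of 50% or more versus controls, with final raw signal at or below 3038400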;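 note: plate controls were neutral control wells for no effect and wells lacking membranes for full effect; tested at 10 µM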
Target sequence (Q03530 whole entry, looked up): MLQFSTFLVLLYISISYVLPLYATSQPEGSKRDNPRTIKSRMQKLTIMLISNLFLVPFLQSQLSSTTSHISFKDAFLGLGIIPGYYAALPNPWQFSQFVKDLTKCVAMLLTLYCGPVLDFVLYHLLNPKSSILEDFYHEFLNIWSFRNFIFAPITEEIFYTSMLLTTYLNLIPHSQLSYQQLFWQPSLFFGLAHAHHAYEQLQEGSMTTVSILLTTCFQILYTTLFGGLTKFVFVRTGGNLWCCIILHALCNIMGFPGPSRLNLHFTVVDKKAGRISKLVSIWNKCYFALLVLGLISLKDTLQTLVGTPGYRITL
UUG fidelity: modulators of start codon recognition fidelity in yeast | 350,000 compounds, 0.13% hits | S. cerevisiae UUG-firefly luciferase reporter, luminescence/redox ratio | activity score, % at 18.7 µM;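 active = replicate mean at a twofold rise or more, about +100% in these data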;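 note: firefly luciferase made from a UUG start codon reports start codon fidelity; reporter light over untreated wells divided by growth signal over untreated wells; some hits fall short of that in this replicate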
CSC inhib: cancer stem cell inhibition; cancer stem cell-like cells viability, luminescence; inhibition, % at 7.5 µM; 300,000 compounds, 1.1% hits;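 active = mean at 75% or more and at least half the replicates too; tested in HMLE shEcad cells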;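 note: 0% = median of negative and 100% = median of positive control wells; the first replicate is given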
PABP FP inh: PABP-poly(A) binding inhibition; P11940; PABP-poly(A) RNA binding, fluorescence polarization; inhibition, % at 35 µM; 290,000 compounds, 1% hits; AID 2014;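 active = 50% or more with normal probe brightness, or confirmed in later tests; about a fifth of its hits are not listed in these tables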;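 note: calls also rest on retests at 20 µM and on dose response follow-up; controls were probe without protein and protein plus probe with vehicle; some compounds called inactive have numbers as strong as hits; many hits fall short of the cut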
MT1-MMP act inh: blocks activation of human MT1-MMP | AID 651647 | 360,000 compounds, 0.061% hits | P50281 | HT1080 RFP-PRO-GFP cells, GFP/RFP ratio fluorescence, overnight; percent of plate control window, DMSO zero | GFP/RFP ratio change, % at 20 µM;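 active = GFP/RFP ratio change of at least 30% with cell ATP level not reduced by more than half and red fluorescence within 50% of control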; note: strong numbers were not always called active
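Assay system: RFP-PRO-GFP reporter HT1080 cells; read-out basis: GFP/RFP fluorescence ratio; benchmarks: DMSO wells and RFP-L50D-GFP cells; doses: 20 µM single dose, 1% DMSO; schedule: overnight cell settling, then overnight compound exposure, 37 °C, 5% CO2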
MT1-MMP act inh RFP: further read-out of MT1-MMP act inh, marked with its call; RFP signal change, %; measured here: RFP expression control read;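 0 = vehicle wells; hits needed this value within 50% of zero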
* = called active by the depositor; i = inactive; · = no result given; & = joins results of further samples. These rows are one share of the data (hit frequency here may not be typical).

SMILES | eIF4H FP inh | Env fusion inh | Rce1 inhib | UUG fidelity | CSC inhib | PABP FP inh | MT1-MMP act inh | MT1-MMP act inh RFP
CC1CCN(Cc2ccc(-c3nnn(CC(=O)Nc4ccccc4Cl)n3)cc2)CC1 | 1 | -2 | i | · | -7 | -6 | 3 | -2
COc1ccc(OC)c(Cc2nnc(CCC(=O)N3CCCCCC3)o2)c1 | -4 | -22 | i | · | -4 | 0 | -5 | -1
NC(=S)COc1ccccc1 | -3 | 17 | i | · | 5 | 6 | 0 | 4
S=c1[nH]nc(COc2ccc(Cl)cc2)n1C1CCCCC1 | 3 | · | i | -7 | 8 | -1 | 2 | -5
COc1ccc(C(=O)/C=C/Nc2cc(C)ccn2)cc1 | -6 | -338 | · | -66 | -5 | -8 | -1 | -3
CCOc1ccc(N2C(=O)CC(Sc3nc(CC(C)C)ccc3C#N)C2=O)cc1 (stereo not drawn) | -2 | 1 | i | · | -4 | -10 | 25 | 15
CCOc1ccc(CCNC(=O)COC(=O)c2ccc(OC)c(OC)c2OC)cc1OCC | 4 | -21 | i | 0 | 4 | -1 | 3 | 2
COC(=O)C1C(=O)c2c([nH]c(C(=O)OCCSC)c2C)CC1C (stereo not drawn) | -7 | -40 | i | -17 | -3 | 5 | -1 | -2
CSc1ccccc1NC(=O)c1ccc(CN2CCOCC2)cc1 | -10 | -6 | i | -11 | -5 | 46 | 1 | 3
CC1CCN(C2=C(NS(=O)(=O)c3ccccc3)C(=O)c3ccccc3C2=O)CC1 | -6 | 22 | i | · | 32 | 8 | 8 | -1
CCOC(=O)Nc1ccc(NC(=O)c2c(OC)cccc2OC)cc1 | 9 | · | i | 0 | -6 | 4 | -1 | 0
C[C@@H]1CCCCO[C@@H](CN(C)C(=O)c2ccncc2)[C@@H](C)CN([C@H](C)CO)C(=O)c2cc(NC(=O)Cc3ccccc3)ccc2O1 | · | 15 | · | 7&5 | · | · | 0 | 3
CCOC(=O)Cc1c(C)nc2c(-c3ccccc3)cnn2c1C | -6 | 5 | i | · | -4 | 1 | 0 | -4
CSc1ccc(CN(C)C(=O)c2cc(=O)c3ccccc3o2)cc1 | 15 | 10 | i | 1 | -10 | 14 | -2 | -10
O=C(CSc1nnc(-c2ccncc2)n1Cc1ccccc1)NC1CCCc2ccccc21 (stereo not drawn) | -9 | 42 | i | · | 0 | -9 | -1 | -1
CCSc1nnc(-c2ccc(S(=O)(=O)N3CCOCC3)cc2)n1CC1CCCO1 (stereo not drawn) | 7 | -2 | i | -21 | -11 | 2 | 1 | 0
CCCN(C(=O)CSc1nc2ccccc2n1CC)C1CCS(=O)(=O)C1 (stereo not drawn) | 4 | -3 | i | -11 | -1 | -1 | -1 | 1
CCOc1ccc(OCCN(C)Cc2ccccc2)cc1 | -7 | -117 | i | · | 3 | -8 | 1 | 3
CC(C)(C)c1ccc(C2(C)NC(=O)NC2=O)cc1 (stereo not drawn) | 10 | 4 | i | -13 | -6 | 14 | 0 | 3
COC(=O)[C@@]12CCCN1[C@H](c1ccc(-c3ccccc3)cc1)[C@@H]1C(=O)N(C)C(=O)[C@@H]12 | · | -10 | i | -2 | -9 | · | -1 | -1
CCCn1c(SCC(=O)N(C)CC(=O)Nc2ccc(C)cc2)n[nH]c1=O | · | 2 | · | -14 | · | · | -1 | -1
Cc1cc(C)c(NC(=O)CC(=O)c2ccccc2)c(Cl)c1 | -7 | -12 | i | -6 | 8 | -6 | 2 | -6
CC(O)Cn1ccccc1=N (stereo not drawn) | 83* | · | i | 1 | -6 | 73* | 2 | 5
COC(=O)c1ccc(N2CCN(CC(=O)c3ccc(C)cc3)CC2)c([N+](=O)[O-])c1 | · | 1 | i | -6 | 4 | · | -4 | 8
Cc1csc2c(NC3CCN(Cc4ccccc4)CC3)ncnc12 | 3 | 7 | i | · | 1 | -3 | 7 | -4
(cont.)
SMILES | eIF4H FP inh | Env fusion inh | Rce1 inhib | UUG fidelity | CSC inhib | PABP FP inh | MT1-MMP act inh | MT1-MMP act inh RFP
O=S(=O)(c1cc(Cl)ccc1Cl)N1CCC2(CC1)OCCO2 | -4 | 14 | i | -16 | -2 | 8 | -2 | 4
CCOc1ccc(C2C(C(=O)/C=C/c3ccco3)=C(O)C(=O)N2CCN2CCOCC2)cc1OC (stereo not drawn) | 34 | 14 | i | · | -3 | 0 | -1 | 5
COc1ccc(N2C(=NC(=O)C3CCCCC3)SC3CS(=O)(=O)CC32)cc1OC (stereo not drawn) | -5 | 6 | i | 7 | -16 | -2 | -2 | 5
c1ccc(CNCc2ccc3c(c2)OCO3)nc1 | 6 | -29 | i | -22 | 5 | -5 | 5 | 7
CC12CCC(=O)N1C(C(=O)NNC(=O)COc1ccc(Br)cc1)CS2 (stereo not drawn) | · | 1 | i | 0 | -3 | · | -1 | 1
O=C1NC[C@H](Cc2ccccc2)N(CC2CCN(CCC3CCCC3)CC2)C1=O | · | 7 | · | -3 | · | · | 3 | 3
Cc1cccc(-c2noc(CNC(=O)c3ccc4c(c3)OCO4)n2)c1 | 0 | 0 | i | -10 | -3 | -12 | -6 | -1
COc1ccccc1/C=N/NC(=O)CN(C1=NS(=O)(=O)c2ccccc21)c1ccccc1 | 4 | 13 | i | · | -28 | 6 | -3 | -6
CCCNC(=O)N(C)C[C@@H]1Oc2cc(Br)ccc2S(=O)(=O)N([C@@H](C)CO)C[C@H]1C | · | -3 | · | 6&5&7 | · | · | 3 | 6
CC(C)OP(C)(=O)CN1CCN(CP(C)(=O)OC(C)C)CC1 (stereo not drawn) | 1 | · | i | -15 | -9 | 5 | -1 | -1
O=[N+]([O-])c1ccc(N/N=C/c2cccs2)nc1 | · | -79 | i | · | 2 | · | -4 | -5
COC(=O)[C@@]12CCCN1[C@H](c1ccc(-c3ccc4c(c3)OCO4)cc1)[C@H]1C(=O)N(C)C(=O)[C@H]12 | · | -19 | · | 6 | · | · | 5 | -3
Cc1ccc(-n2c(=O)cc(N3CCCCCC3)[nH]c2=O)cc1 | -8 | -3 | i | -6 | 10 | -14 | · | ·
Cc1cccc(NC(=O)CSc2nc3ccccc3c(=O)n2C)c1C | · | 21 | · | -14 | · | · | 1 | -24
COc1ccc(OC2CCN(S(=O)(=O)c3ccc(C(C)=O)cc3)CC2)cc1 | 2 | 11 | i | -10 | -7 | -4 | 0 | -11
CCOc1ccc(N2C(=O)/C(=C/c3cccs3)N(C)C2=S)cc1 | 5 | -31 | i | · | -2 | -2 | -2 | -1
COc1cccc(C2c3[nH]c4ccccc4c3CCN2CCCn2cccn2)c1 (stereo not drawn) | 4 | -12 | i | 2 | -8 | 3 | -4 | 0
Cc1ccc(F)cc1NC(=O)c1c(-c2ccccc2)noc1C | 3 | 6 | i | -26 | -6 | 3 | 0 | 1
O=C(CCNS(=O)(=O)c1ccccc1)NNC(=O)COc1ccccc1F | · | -1 | · | -8 | -1 | · | -5 | 0
COc1ccccc1NC(=O)Cc1nnc(SCC(=O)NC2CCCC2)n1C | -18 | -9 | · | 3 | -8 | -15 | -3 | 0
Fc1cccc(NC(=S)Nc2ccc(Br)cc2)c1 | 28 | · | i | -31 | 48 | 7 | -1 | -1
Cc1cccc(NC(=O)CSc2ccc(-c3ccccn3)nn2)c1C | -9 | 10 | i | · | 8 | -15 | 2 | 2
CC(=O)OCC(=O)Nc1ccc(SC(F)F)cc1 | 0 | -11 | · | · | 2 | -15 | -2 | 1
O=C(NC(NC(=O)c1ccccc1)c1cccc([N+](=O)[O-])c1)c1ccccc1 | 2 | -34 | i | -34 | -4 | 1 | 2 | 0
CCCC(=O)Nc1cc(C(=O)O)ccc1S(=O)(=O)c1ccc(Cl)cc1 | -6 | -6 | i | -15 | 0 | -7 | 0 | -1

Pulled one by one from the entries so far:
SMILES | eIF4H FP inh | Env fusion inh | Rce1 inhib | UUG fidelity | CSC inhib | PABP FP inh | MT1-MMP act inh | MT1-MMP act inh RFP
Cc1ccc(-n2c(=O)cc(N3CCCCCC3)[nH]c2=O)cc1 | -8 | -3 | i | -6 | 10 | -14 | · | ·
COC(=O)[C@@]12CCCN1[C@H](c1ccc(-c3ccc4c(c3)OCO4)cc1)[C@H]1C(=O)N(C)C(=O)[C@H]12 | · | -19 | · | 6 | · | · | 5 | -3
CCOc1ccc(C2C(C(=O)/C=C/c3ccco3)=C(O)C(=O)N2CCN2CCOCC2)cc1OC (stereo not drawn) | 34 | 14 | i | · | -3 | 0 | -1 | 5
O=[N+]([O-])c1ccc(N/N=C/c2cccs2)nc1 | · | -79 | i | · | 2 | · | -4 | -5
COc1ccc(N2C(=NC(=O)C3CCCCC3)SC3CS(=O)(=O)CC32)cc1OC (stereo not drawn) | -5 | 6 | i | 7 | -16 | -2 | -2 | 5

(continued)
SMILES | eIF4H FP inh | Env fusion inh | Rce1 inhib | UUG fidelity | CSC inhib | PABP FP inh | MT1-MMP act inh | MT1-MMP act inh RFP
Cc1c(Br)c([N+](=O)[O-])nn1C(C)C(=O)Nc1nccs1 (stereo not drawn) | 0 | -3 | i | · | · | -6 | 3 | 4
CC(/C=C/c1ccc2c(c1)OCO2)=N\NC(=O)COc1ccccc1C | -2 | -11 | · | -9 | 2 | 6 | -4 | -1
COc1ccc(N2CC(C(=O)Nc3ccccc3C(=O)NC3CC3)CC2=O)cc1 (stereo not drawn) | -3 | 2 | i | · | -1 | 4 | 2 | 5
O=C(Nc1ccc(OC(=O)c2ccccc2)c(-c2nc3ccccc3s2)c1)c1ccccc1 | -6 | -28 | i | -5 | -6 | 3 | 0 | 1
COc1ccccc1NC(=O)C(=O)c1cn(CC(=O)N2CCCC2)c2ccccc12 | 1 | -26 | i | · | -1 | -1 | -5 | -2
O=C(OCc1ccc(F)cc1Cl)c1ccccn1 | -14 | -32 | i | -12 | 34 | -4 | 0 | 2
O=C(CCC(=O)NNC(=O)Cc1ccccc1)NCc1ccccc1 | -6 | -10 | i | · | 0 | 10 | 3 | 4
CC1=Nn2c(nnc2-c2ccccc2F)SC1 | -2 | -67 | i | -13 | -18 | 11 | -3 | 1

Record cards (already shown).
O=C(CCNS(=O)(=O)c1ccccc1)NNC(=O)COc1ccccc1F is listed as eIF4H FP inh = ·; Env fusion inh = -1; Rce1 inhib = ·; UUG fidelity = -8; CSC inhib = -1; PABP FP inh = ·; MT1-MMP act inh = -5; MT1-MMP act inh RFP = 0
COc1ccc(N2CC(C(=O)Nc3ccccc3C(=O)NC3CC3)CC2=O)cc1 (stereo not drawn) is listed as eIF4H FP inh = -3; Env fusion inh = 2; Rce1 inhib = i; UUG fidelity = ·; CSC inhib = -1; PABP FP inh = 4; MT1-MMP act inh = 2; MT1-MMP act inh RFP = 5
COc1ccccc1/C=N/NC(=O)CN(C1=NS(=O)(=O)c2ccccc21)c1ccccc1 is listed as eIF4H FP inh = 4; Env fusion inh = 13; Rce1 inhib = i; UUG fidelity = ·; CSC inhib = -28; PABP FP inh = 6; MT1-MMP act inh = -3; MT1-MMP act inh RFP = -6

Laid out differently: 2 of the compounds above
Results follow in this order: eIF4H FP inh	Env fusion inh	Rce1 inhib	UUG fidelity	CSC inhib	PABP FP inh	MT1-MMP act inh	MT1-MMP act inh RFP
- CC(/C=C/c1ccc2c(c1)OCO2)=N\NC(=O)COc1ccccc1C
  -2	-11	·	-9	2	6	-4	-1
- COc1ccc(N2CC(C(=O)Nc3ccccc3C(=O)NC3CC3)CC2=O)cc1 (stereo not drawn)
  -3	2	i	·	-1	4	2	5
